Bioassay records from PubChem.
CBX7 inh: inhibitors of human CBX7 binding to H3K27me3 peptide; AlphaScreen His6-CBX7 / biotin-H3K27me3 peptide binding; hits give low values; actives 1.1% (n = 66,000); normalised signal (fraction of DMSO) (concentration not given with the values); AID 1224903; in the data active = normalised signal below about 0.5;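 note: 100 nL library stock added to about 20 µL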
Target sequence (O95931 whole entry, looked up): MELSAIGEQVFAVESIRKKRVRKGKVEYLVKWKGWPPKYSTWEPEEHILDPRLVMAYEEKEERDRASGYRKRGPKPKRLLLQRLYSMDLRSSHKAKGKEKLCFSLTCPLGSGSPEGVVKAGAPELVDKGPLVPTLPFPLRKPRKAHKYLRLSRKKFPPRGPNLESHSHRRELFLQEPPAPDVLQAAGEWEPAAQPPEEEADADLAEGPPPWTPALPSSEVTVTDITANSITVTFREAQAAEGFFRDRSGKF
CBX7 inh z-score: second read-out of CBX7 inh, no call of its own (marks repeat the call); z-score; measured here: z-score of CBX7 signal; some inactives read as strong as hits; reference of the scale not given here;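 same signal on another scale; lower means less binding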
* hit, by the source's call; & = joins results of further samples. This is a subset; count on the stated rates, not on these rows.

SMILES	CBX7 inh	CBX7 inh z-score
O=C(Cn1c(C(=O)O)cc2sccc21)Nc1ccc(C(=O)O)cc1	0.91	-1.6
COc1ccc(CCC2CCN(c3nc(-c4ccccc4)cs3)CC2)cc1	1.1&1.1	4.9&2.6
FC(F)(F)c1nnc2ccc(N3CCN(Cc4ccccc4)CC3)nn12	1&0.93	1.7&-0.78
COc1ccc(OC)c(Nc2nc(-c3sc(C)nc3C)cs2)c1	0.84	-2.1
Cc1ccc(-n2c(Cc3cccn3C)nnc2SCC(=O)Nc2cccc3ccccc23)cc1	0.74	-6.3
Cn1c(SCc2nc(-c3ccccc3)no2)nnc1C1CCCCC1	1	1.8
CC(=O)Oc1ccc(N2C(=O)C3C4C=CC(C4=C(c4ccccc4)c4ccccc4)C3C2=O)cc1 (configuration not stated)	0.95	-1.8
COc1ccc(-c2nc3cc(C)ccn3c2NC(=O)c2ccc(F)cc2)cc1OC	0.92	-0.75
Cc1ccc(S(=O)(=O)c2cn(CC(=O)Nc3ccc4c(c3)OCO4)c3ccc(F)cc3c2=O)cc1	0.94	-0.89
COc1ccc(-c2nnc(SCC(=O)N3CCc4ccccc43)o2)cc1	0.97	-0.062
Cc1nc(S(=O)(=O)c2ccccc2)c(N(C)C)o1	0.84	-2.1
Cc1cc(N2CCC(C)CC2)nc2ccc(NC(=O)CCC(=O)N3CCC(C)CC3)cc12	1.1	2.4
COc1ccc(-c2cc3nc(C)c(CCC(=O)NCc4ccccc4Cl)c(C)n3n2)c(OC)c1	0.98	-0.24
CCN(CC)S(=O)(=O)c1ccc2c(c1)N(CC(=O)N1CCC3(CC1)OCCO3)C(=O)CO2	1	0.034
Cc1ccc(-n2nnnc2SCC(=O)Nc2ccccc2F)c(C)c1	1.1	0.58
COc1cc(-n2c(C)nc3cc(C(=O)NCc4ccc(F)cc4)ccc32)cc(OC)c1OC	0.99	-0.56
CCOc1ccc(CCNC(=O)CCN2N=C(c3ccc(OC)cc3)CCC2=O)cc1OCC	0.97	-0.53
O=C(NCCc1c[nH]c2ccccc12)c1cc2nc(-c3ccc4c(c3)OCO4)cc(C(F)(F)F)n2n1	0.92	-1.3
CC(C)Oc1ccccc1NC(=O)CSc1nnc(-c2cccc(F)c2)n1-c1ccccc1	0.96	-0.56
O=C(CN1N=C(c2ccc(Cl)cc2)CCC1=O)NCCCN1CCCCC1	1.1	1.5
O=C(NCCc1ccc(Cl)cc1)c1nnc(Cc2ccc(F)cc2)o1	0.9	-1.1
CC(C)(C)N1C(=O)c2ccc(C(=O)Nc3cccc(C(=O)O)c3)cc2C1=O	1	1.4
Cc1ccn2c(Nc3ccc4c(c3)OCCO4)c(-c3ccc(N4CCOCC4)cc3)nc2c1	0.95	-1.7
O=C1CCc2cc(S(=O)(=O)N3CCN(Cc4ccccc4)CC3)ccc2N1	0.98	-0.54
O=C(CN1C(=O)COc2ccc(S(=O)(=O)N3CCOCC3)cc21)NC1CC1	1	0.59
COC(=O)CSc1nnc(-c2ccccc2OC)o1	0.98	-0.53
CCC1CCCCN1CCCNC(=O)CC(C(=O)N1CCc2ccccc21)n1ccnc1 (configuration not stated)	0.99	-0.22
CCOC(=O)c1oc2ccccc2c1NC(=O)c1cccc(F)c1	1.2	6.6
O=c1[nH]c(Cc2ccccc2)nc2sc3c(c12)CCCC3	1	0.61
COc1ccc(Cc2nc(-c3ccc(C)cc3)no2)cc1OC	1	0.52
Cc1ccc(NC(=O)C2CC(=O)N(c3ccc(OC(C)C)cc3)C2)cc1 (configuration not stated)	1	0.022
O=C(Nc1cccc(Cl)c1)Nc1nnc(Cc2ccccc2F)s1	1.1	0.21
O=C(NCCc1ccccc1)C1CCCN(S(=O)(=O)c2cccnc2)C1 (configuration not stated)	1.1	0.072
Cc1ccc(NC(=O)C2CCN(S(=O)(=O)c3cccc4nsnc34)CC2)cc1F	1.1	0.19
O=C(NC1CCCCCCC1)C1c2cccn2CC(=O)N1Cc1ccccc1Cl (configuration not stated)	0.91	-0.22
CCOC(=O)c1ccc(NC2c3ccccc3C(=O)N2c2ccc(C)cn2)cc1 (configuration not stated)	0.91	-1.2
COC(=O)CSc1nnc(Cc2cc(=O)[nH]c(=O)[nH]2)n1-c1ccc(F)cc1	1	-0.11
O=C1CC(Cc2ccc(Cl)cc2)C(=O)N1c1ncccn1 (configuration not stated)	1.2	0.42
COc1ccc(Nc2cc(C(=O)N3CCCC3)c3ccccc3n2)cc1	0.95	-0.049
CC(=O)NCCc1cc2c(C)ccc(C)c2[nH]c1=O	1.1	0.63
CCOc1ccc2nc(N3CCCC(C(=O)NC4CC4)C3)sc2c1 (configuration not stated)	0.98	-0.65
COc1ccc(CNC(=O)c2cc(=O)[nH]c3ccc(S(=O)(=O)N4CCCCC4C)cc23)cc1 (configuration not stated)	1	0.95
Cc1cc(C(=O)Nc2ccccc2C)n(-c2ccccc2)n1	1.2	2.6
CCN1CCN(Cc2c(O)ccc3c(=O)c(-c4ccccc4OC)coc23)CC1	0.98	-0.6
CCOc1ccc(C2=C(Cl)C=C(c3ccccc3C)c3ccccc3O2)cc1	0.91	-1.4

Compound profiles, as listed above. Order of screens: CBX7 inh	CBX7 inh z-score
O=C(NC1CCCCCCC1)C1c2cccn2CC(=O)N1Cc1ccccc1Cl (configuration not stated) in the list: 0.91	-0.22
CC(=O)NCCc1cc2c(C)ccc(C)c2[nH]c1=O in the list: 1.1	0.63
O=C1CC(Cc2ccc(Cl)cc2)C(=O)N1c1ncccn1 (configuration not stated) in the list: 1.2	0.42

Next section:
SMILES	CBX7 inh	CBX7 inh z-score
CCOC(=O)N1CCN(C(=O)c2cn(-c3ccc(C)c(C)c3)c(=O)c3ccccc23)CC1	1	0.94
c1ccc(CC2CCN(c3ccc4nnc(-c5ccccc5)n4n3)CC2)cc1	0.8	-4.6
CCc1cccc(N(C(=O)Nc2ccccc2Cl)C2CCN(C(C)=O)CC2)c1	0.94	-1.5
O=C(NC1CCCCC1)c1ccc2c(c1)N(Cc1ccc(Cl)cc1)C(=O)c1ccccc1S2=O (configuration not stated)	0.97	-1.3
COc1ccc(Cl)cc1NC(=O)Cn1ncc2c1-c1ccccc1OC2	1.1	2
Clc1ccccc1-c1nnc(-c2ccncc2)o1	0.97	-0.38
CCOC(=O)c1c(NC(=O)c2nn3c(C(F)(F)F)cc(-c4ccc(Cl)cc4)nc3c2Cl)sc2c1CCCC2	0.86	-1.8
COc1ccc(CNC(=O)c2ccc3c(c2)N=C(C)c2ccccc2S3)cc1	0.63	-0.37
Cc1ccc(-c2noc(CCC(=O)Nc3cccnc3)n2)cc1	0.96	-0.64
CCOc1ccccc1N1C(=O)c2ccc(C(=O)Nc3cccnc3)cc2C1=O	1.1	0.95
COc1cccc2ccc(/C=C/c3ccc(Br)cc3)nc12	1.4	18
COc1ccc(CNC(=O)c2ccc3c(c2)N(Cc2ccccc2F)C(=O)c2ccccc2S3)cc1	0.97	-0.87
Cc1cc(C(=O)Nc2c(C)nn(Cc3ccc(F)cc3)c2C)no1	1	0.79
Cc1oc(-c2ccccc2F)nc1CS(=O)(=O)CC(=O)NCCCN1CC(C)CC(C)C1 (configuration not stated)	1	0.098
COc1ccc(Cl)cc1C(=O)Nc1cccc(-c2nc3ncccc3o2)c1	0.98	-0.45
CCOC(=O)N1CCC(Nc2c(N3CCN(c4cccc(Cl)c4)CC3)c(=O)c2=O)CC1	1	0.57
CCOc1ccccc1NC(=O)c1cn(CC)c(=O)c2cc(OC)c(OC)cc12	1	1.1
CC1CCCCC1NC(=O)CCCN1C(=O)CSc2ncccc21 (configuration not stated)	1	0.6
CCOC(=O)c1cnc2c(C)cc(C)cc2c1Nc1ccc(CC)cc1	1.2	6
CCOc1ccc(CC(=O)NCCc2c(C)[nH]c3c(C)ccc(F)c23)cc1OCC	0.64	-6.2
CCC1CCCCN1S(=O)(=O)c1ccc2[nH]c(=O)[nH]c2c1 (configuration not stated)	1	0.13
CCN1CCN(CCCNC(=O)c2oc3ccc(S(=O)(=O)N4CCOCC4)cc3c2C)CC1	1.1	2.2
COc1ccc(C2C(C(=O)Nc3ccc(F)cc3)CCC(=O)N2c2ccc3c(c2)OCO3)cc1 (configuration not stated)	0.99	-0.43
Cc1ccc(NC(=O)c2ccc3c(c2)N(Cc2ccccc2)CCS3)cc1Cl	1.1	0.2
COc1ccc(-c2nc3ccc(Cl)cn3c2Nc2ccccc2C)cc1	1	0.31
O=C(O)CC(NCc1cccnc1)c1cccs1 (configuration not stated)	1	0.012
CC1CCN(c2nc3ccc(C(=O)NCc4ccccc4Br)cc3s2)CC1	0.95	-2.4
CCC([N+](=O)[O-])C1(O)C(=O)Nc2ccccc21 (configuration not stated)	1	0.16
O=C(CC1Sc2ccccc2NC1=O)Nc1cc(C(F)(F)F)ccc1Cl (configuration not stated)	1.1	1.8
Cc1cccc(Nc2nc3nonc3n3cnnc23)c1C	0.98	-0.22
Fc1ccc(-c2csc(-c3cccnc3)n2)cc1	1	-0.051
O=C(Nc1ccc2oc(-c3ccc(F)cc3Cl)nc2c1)c1ccc(Cl)cc1Cl	1	0.0038
Cc1ccccc1Nc1c(-c2ccccn2)nc2cccc(C)n12	0.24*	-16*
CCCCNC(=O)CN1C(=O)COc2ccc(S(=O)(=O)N3CCOCC3)cc21	1	0.15
Cc1ccc(F)c(NC(=O)C2CC(=O)N(c3ccc(Cl)cc3)C2)c1 (configuration not stated)	1	-0.01
CC(C)Oc1ccc(C2CC(=O)NC3=C2C(=O)CC(C)(C)C3)cc1 (configuration not stated)	0.97	-0.41
Cc1ccc(-c2ccc(=O)n(CC(=O)NCc3cccs3)n2)cc1	1	0.45
Fc1ccc(-c2nnc3ccc(N4CCOCC4)nn23)cc1	0.92	-1.1
CC(NC(=O)c1ccc2c(c1)N(Cc1ccccc1)C(=O)CS2=O)c1ccccc1 (configuration not stated)	1.2	2.4
C=CCOc1ccc(NC(=O)C(=O)NCCCN2CCOCC2)cc1	0.99	-0.38
Cc1cccc(NC(=O)CSc2nnc(CNC(=O)COc3ccc(Cl)cc3)o2)c1C	1.1	1.8
O=c1oc2ccc(Cl)cc2cc1-c1nc2ccccc2[nH]1	1	0.56
CC(NC(=O)Cn1nc(Cc2cccnc2)c2ccccc2c1=O)c1ccc2c(c1)OCCO2 (configuration not stated)	1.1	0.087
CN(CCNC(=O)CN1C(=O)CSc2ccc(S(=O)(=O)N3CCOCC3)cc21)Cc1ccccc1	0.8	-2.3
c1ccc(CN2CCC(N3CCC(N4CCc5ccccc5C4)CC3)CC2)cc1	1	0.031
O=C1CN(C(=O)c2cccc(Br)c2)C(c2ccc(F)cc2)c2cc(Cl)ccc2N1 (configuration not stated)	1.1	0.55
CC(=O)N1CCC(N(C(=O)Nc2ccc(Cl)cc2)C2CCCCC2)CC1	0.93	-1.1
CCOc1ccc(-n2ccnc2SCC(=O)Nc2cc(C)ccc2C)cc1	1.2	1.3
COc1ccc(C(=O)Nc2c3c(nn2-c2ccc(C)cc2)CS(=O)(=O)C3)cc1OC	1	0.46
CCOc1ccc(C(O)(CCN2CCCCC2)C(C)C)cc1 (configuration not stated)	0.93	-0.8
Cc1ccc2c(c1)NC(=O)C(CC(=O)NCCN(CC(C)C)CC(C)C)O2 (configuration not stated)	1	1.2
Cc1ccc(-c2cc(C(=O)O)c3ccccc3n2)c(C)c1	0.99	-0.19
O=C(CSc1nnc(-c2cccnc2)n1Cc1ccccc1)Nc1ccc(Br)cc1	1	0.22
O=C(NCCc1c[nH]c2ccccc12)C1(c2ccccc2)CCCC1	0.81	-3.2
COC(=O)c1ccc(-n2ncnc2-c2cccc(Br)c2)cc1	0.93	-0.56
Cn1c(C(=O)N2CCC(C(=O)NC3CCCC3)CC2)cc2sccc21	1	0.68
OC(COCC1CC=CCC1)Cn1c2ccccc2c2ccccc21 (configuration not stated)	1.1	0.93
Cc1oc(-c2ccccc2F)nc1CN1CCC(C(=O)NC2CCCC(C)C2C)CC1 (configuration not stated)	0.93	-0.87
C=CCNc1oc(COc2ccccc2C)nc1C#N	0.88	-3.3
Cc1ccc2c(c1)C(c1ccccc1)N(C(=O)c1c(F)cccc1Cl)CC(=O)N2 (configuration not stated)	0.95	-0.2

In the list so far, these contain two or more sulfur atoms:
SMILES	CBX7 inh	CBX7 inh z-score
COc1ccc(OC)c(Nc2nc(-c3sc(C)nc3C)cs2)c1	0.84	-2.1
Cc1ccc(NC(=O)C2CCN(S(=O)(=O)c3cccc4nsnc34)CC2)cc1F	1.1	0.19
CN(CCNC(=O)CN1C(=O)CSc2ccc(S(=O)(=O)N3CCOCC3)cc21)Cc1ccccc1	0.8	-2.3

Additional results follow.
SMILES	CBX7 inh	CBX7 inh z-score
CC1C(c2ccccc2)N(C)CCC12NC(=O)NC2=O (configuration not stated)	0.99&0.96	-0.23&-0.47
Cc1ccc(Cl)cc1NC(=O)c1cc(-c2cccs2)nc2ccccc12	0.97	-0.15
Cc1ccc2nc(-c3ccc(C)c(NC(=O)Cc4ccccc4)c3)oc2c1	1	0.094
O=C(CSc1nnc(-c2cccc(Cl)c2)o1)N1CCCc2ccccc21	1.2	1.9
COc1cccc(-c2cc(C(F)(F)F)nc(-n3ccnc3C)n2)c1	1.1	2
CCn1c(SCC(=O)Nc2c(C)cccc2C)nnc1-c1cccnc1	1.1	2.2

Reprinted at random: six entries already listed
SMILES	CBX7 inh	CBX7 inh z-score
Cc1ccc(Cl)cc1NC(=O)c1cc(-c2cccs2)nc2ccccc12	0.97	-0.15
Cc1ccc2nc(-c3ccc(C)c(NC(=O)Cc4ccccc4)c3)oc2c1	1	0.094
COc1cccc(-c2cc(C(F)(F)F)nc(-n3ccnc3C)n2)c1	1.1	2
CC1C(c2ccccc2)N(C)CCC12NC(=O)NC2=O (configuration not stated)	0.99&0.96	-0.23&-0.47
O=C(CSc1nnc(-c2cccc(Cl)c2)o1)N1CCCc2ccccc21	1.2	1.9
CCn1c(SCC(=O)Nc2c(C)cccc2C)nnc1-c1cccnc1	1.1	2.2
